From PubChem
Marburg entry inh: inhibitors of Marburg virus binding or cell entry; Marburg virus pseudotyped entry inhibition, cell reporter; control for the full effect not named in the record; about a third of the inactives were read at about 46 µM; Potency, µM (series often up to 37.8 µM), inactives show top-dose activity change, negative = inhibition, usual class: inhibitors; 1.8% of 300,000 active; active = well fitted inhibition curve with a large enough effect; inconclusive = small, poorly fitted or top-dose-only effect, or effect the other way; inactive = flat fitted curve, though single readings scatter; tested in HEK293 cells; about a fifth of its hits are not listed in these tables; note: % is set by controls: 0 for no effect and ±100 for the full control effect; luciferase read-out
RE007 growth inh: less growth of the S. pombe RE007 Vpr strain | Potency, µM (highest dose often 92.2 µM), for inactives: top-dose activity change, negative = less growth | 0.21% of 360,000 active | AID 651644 | S. pombe RE007 Vpr strain, BacTiter-Glo ATP luminescence, 24 h; control for the full effect not named in the record; active = well fitted falling curve with a large enough effect; inconclusive = small, poorly fitted or top-dose-only effect; inactive = no such curve, though single readings can be large or run the other way;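 note: % is set by controls: 0 for no effect and ±100 for the full control effect; nearly all actives have a fitted effect of over 50% in size; the assay follows cell death caused by Vpr and the record does not say whether a fall means rescue or toxicity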
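Fission yeast RE007 carrying one integrated HIV-1 vpr copy, seeded at OD 0.01 in PMG+AL medium with 23 nL pinned compound. Grown 24 h at 30 degrees; viability read by BacTiter-Glo luminescence after 5 min.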
LASV entry inh: blocks Lassa virus binding to or entry into cells | Potency, µM (highest dose often 37.9 µM), without a hit: at the highest dose activity change, negative = inhibition, most hits filed as inhibitors | AID 540256 | 1.2% of 300,000 active | Lassa virus pseudotype entry inhibition, cell reporter; control for the full effect not named in the record; active means well fitted inhibition curve with a large enough effect; inconclusive means small, poorly fitted or top-dose-only effect, or effect the other way; inactive means flat fitted curve, though single readings scatter; tested in HEK293 cells; note: % is set by controls: 0 for no effect and ±100 for the full control effect; nearly all actives have a fitted effect of over 50% in size; luciferase read-out
NS1 function inh: blocks influenza NS1 protein function | S. cerevisiae slowed by influenza A NS1, growth recovery by OD600 | Potency, µM (titrated, usually from 46.1 µM), for the others: top-dose activity, positive = more growth | 0.4% of 270,000 active | AID 2326; active means well fitted rising curve with a large enough effect; inconclusive means small, poorly fitted or top-dose-only effect; inactive means no such curve, though single readings can be large or run the other way; note: nearly all actives have a fitted effect of over 50% in size
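A cell-based growth assay was used: compounds that relieve NS1-induced slow growth of budding yeast raise OD600. Assay medium was yeast nitrogen base with ammonium sulphate and -URA supplement, pH 6.0, with 2% galactose.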
SARS PLP yeast: blocks SARS-CoV papain-like protease in a yeast assay; S. cerevisiae expressing SARS-CoV PLpro, growth rescue; control for the full effect not named in the record; Potency, µM (highest dose often 32.9 µM), inactives show top-dose activity, positive = growth rescue; 0.19% of 330,000 active; active means well fitted rising curve with a large enough effect; inconclusive means small, poorly fitted or top-dose-only effect; inactive means no such curve, though single readings can be large or run the other way; note: 0% is about no effect; nearly all actives have a fitted effect of over 55% in size; growth read by luminescence after 48 h
Cruzain inh noDet: blocks cruzain activity in detergent-free assay. P25779. purified cruzain, Z-FR-AMC fluorescence, no detergent. Potency, µM, inactives show max response, negative = inhibition, usual class: inhibitors. 2.3% of 200,000 active;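 note: plate controls were enzyme without inhibitor for no effect and buffer without enzyme for full effect; nearly all actives have a fitted effect of over 40% in size; top concentration of the series not given in the record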
Target sequence (P25779 123-467 limits assumed): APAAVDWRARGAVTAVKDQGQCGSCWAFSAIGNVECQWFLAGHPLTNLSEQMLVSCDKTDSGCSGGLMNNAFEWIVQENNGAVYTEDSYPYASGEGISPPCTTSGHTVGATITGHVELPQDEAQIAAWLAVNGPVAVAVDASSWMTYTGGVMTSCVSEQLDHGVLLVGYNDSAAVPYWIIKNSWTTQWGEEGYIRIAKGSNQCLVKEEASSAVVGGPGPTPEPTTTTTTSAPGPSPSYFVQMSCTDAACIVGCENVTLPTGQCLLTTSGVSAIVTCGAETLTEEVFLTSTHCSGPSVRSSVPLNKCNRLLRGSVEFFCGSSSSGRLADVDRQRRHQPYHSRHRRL
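Detergent-free condition (0.00005% Triton X-100) in acetate buffer pH 5.5 with DTT. 1.5 nM enzyme and compound were pre-mixed 15 min, then 2 uM Z-FR-AMC substrate added; reaction progress from fluorescence change between first and third reads (60 s).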
StopGo reporter: lowers the luciferase signal of an FMDV 2A StopGo reporter; AID 1159524; Potency, µM (titrated, usually from 57.9 µM), inactives show at the highest dose signal change, negative = less light; 1.2% of 410,000 active; human cells with a luciferase reporter of 2A StopGo recoding; control for the full effect not named in the record; active = well fitted falling curve with a large enough effect; inconclusive = small, poorly fitted or top-dose-only effect; inactive = no such curve, though single readings can be large or run the other way; tested in HEK293T cells; note: % is set by controls: 0 for no effect and ±100 for the full control effect; nearly all actives have a fitted effect of over 45% in size; luciferase light after 4 h
Cruzain inh Det: inhibitors of Trypanosoma cruzi cruzain with detergent. purified cruzain, Z-FR-AMC fluorescence, 0.01% Triton. Potency, µM, inactives show max response, negative = inhibition, actives largely listed as inhibitors. 0.43% of 200,000 active. AID 1478;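 note: plate controls were neutral wells for no effect and buffer without enzyme for full effect; nearly all actives have a fitted effect of over 40% in size; top concentration of the series not given in the record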
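Enzyme 1.5 nM, Z-FR-AMC 2 uM, NaOAc 100 mM pH 5.5, DTT 5 mM, Triton X-100 0.01%; 15 min RT compound preincubation; kinetic ex360/em450, 60 s delta.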
Active calls of the source: *; ? = inconclusive; nt = not tested or not shown; [ ] = another dose, or the depositor's remark. Unless noted, calls come from the whole dose curve; as a rule, active = well fitted curve in the direction sought with a large enough effect; inconclusive = small, poorly fitted or top-dose-only effect, or another doubt; inactive = no such curve, though single readings can be large; an effect the other way counts as inactive or inconclusive. Potency is the fitted concentration of half-maximal effect.

SMILES	Marburg entry inh	RE007 growth inh	LASV entry inh	NS1 function inh	SARS PLP yeast	Cruzain inh noDet	StopGo reporter	Cruzain inh Det
Cc1cccc(-n2c(=O)c(C#N)cc3c(=O)n4ccccc4nc32)c1	-6%	-6%	2%	1%	6%	?	3%	41%[activator]
O=c1c2oc3ccccc3c2n(Cc2ccc(Cl)cc2)c(=O)n1Cc1ccc2c(c1)OCO2	nt	nt	8%[46.1 µM]	nt	nt	-4%	12%	-1.4%
COc1cc2c(cc1OC)C(=O)NCC(C)(C)O2	23%	-11%	-7%	8%	14%	-2%	-7%	-1.4%
C=CCN1C(=O)N/C(=C/c2ccc(N3CCOCC3)o2)C1=O	?	nt	-20%	-20%	-3%	-4%	nt	-12%
O=C(Cn1cc2c(n1)CCCCC2)NC1CCN(Cc2ccccc2)CC1	3%	0%	nt	5%	-3%	12%	-18%	2.0%
Cc1nn(Cc2cccc(C(=O)Nc3ccn(Cc4c(F)c(F)cc(F)c4F)n3)c2)c(C)c1[N+](=O)[O-]	?	-5%	?	12%	6%	?	0%	-3.3%
Cc1ccccc1Nc1nnc(SCC(=O)NC(=O)NCc2ccco2)s1	-21%	9%	-6%	?	0%	-17%	9%	-3.0%
c1ccc(CCNc2nc(-c3cccnc3)cs2)cc1	10%	12%	-21%	-19%	-23%	-5%	nt	-3.9%
Clc1ccc(-c2csc(N3CCCCCC3)n2)cc1	nt	-8%	nt	7%	-7%	nt	34%[activator]	nt
O=C(Nc1nnc(C2CC2)s1)c1cc2ccccc2o1	?	-8%	?	nt	0%	nt	26%	nt
COc1ccc(N(C)S(=O)(=O)c2ccc(Cl)c(C(=O)NNC(=O)c3ccccc3O)c2)cc1	-18%	29%	12%	nt	1%	nt	-16%	nt
O=C(Nc1ccncc1)C1CC(=O)N(c2ccccc2)C1 (configuration not stated)	2%[46.1 µM]	3%	2%	nt	nt	nt	-7%	nt
Cc1cc(=O)oc(C)c1C(=O)N1CCN(C)CC1	7%	-2%	9%	7%	?	-2%	12%	1.2%
CCN(CC)CCOC(=O)c1ccc(NC(=O)CNC(=O)c2ccccc2)cc1	?	0%	-1%[46.1 µM]	nt	-3%	nt	0%	nt
CC(=O)c1cc2c(cc1NS(=O)(=O)c1ccc(C)cc1)OCCO2	?	1%	?	-7%	0%	6%	-25%	-4.7%
COc1ccccc1C1C(C(N)=O)=C(C)Nc2nc(-c3ccccc3Cl)nn21 (configuration not stated)	nt	13%	nt	6%	1%	0%	-4%	2.3%
COc1ccc(N2CCN(S(=O)(=O)c3ccc4oc(=O)ccc4c3)CC2)cc1	1%[46.1 µM]	-19%	0%	-4%	1%	nt	2%	nt
O=C(C[n+]1ccc(C(=O)N/N=C/c2ccc(O)cc2)cc1)c1ccccc1	-7%	20%	?	12%	-10%	-11%	-3%	-3.8%
Cc1onc(-c2ccccc2Cl)c1C(=O)Nc1nnc(Cc2ccc(Cl)cc2)s1	13%	12%	-9%	13%	3%	?	-26%	-0.9%
Cc1ccccc1Cn1c(SCc2ccc(C(=O)NC3CCCCC3)cc2)nc2ccncc21	-11%[46.1 µM]	nt	nt	nt	nt	-1%	1%	-9.1%
O=C(CCN1C(=O)S/C(=C\c2ccccc2)C1=O)Nc1ccc(O)cc1C(=O)O	?	0%	13%[46.1 µM]	15%	5%	nt	70%[activator]	nt
CSCCC(NC(=O)c1ccccc1)C(=O)NCCc1ccc2c(c1)OCCO2 (configuration not stated)	2%	12%	-16%	nt	2%	nt	9%	nt
c1coc(CNC2CCCCC2)c1	11%	-1%	18%	11%	-4%	-5%	4%	2.0%
O=C(CSc1nc2ccsc2c(=O)n1NC(=O)c1ccccc1)Nc1nccs1	5%	-12%	37%[14.3 µM]	3%	10%	-1%	66%[activator]	1.4%

Next part
Value order – Marburg entry inh	RE007 growth inh	LASV entry inh	NS1 function inh	SARS PLP yeast	Cruzain inh noDet	StopGo reporter	Cruzain inh Det
COC(=O)c1ccc(N2NC(=O)/C(=C/c3ccc(-c4ccc(Cl)c(C(=O)O)c4)o3)C2=O)cc1
 : ?	-2%	-2%	6%	1%	nt	-16%	nt
COc1ccc(CN(C)C(=O)COC(=O)c2cnc(Cl)c(Cl)c2)cc1
 : 1%[46.1 µM]	-3%	-3%	nt	-6%	nt	-2%	nt
CCOC(=O)CSc1nc2sc3c(c2c(=O)n1Cc1ccccc1)CCC(C(C)(C)C)C3 (configuration not stated)
 : nt	nt	5%[46.1 µM]	nt	nt	-4%	-17%	0.8%
Cn1c(Cl)c(/C=N/OC(=O)C2CC2)c2ccccc21
 : 2%[46.1 µM]	-27%	12%[46.1 µM]	-37%	-1%	nt	4%	nt
O=C(NC1CC(=O)N(c2ccc(F)cc2)C1)c1ccco1 (configuration not stated)
 : nt	nt	2%[46.1 µM]	nt	nt	6%	-20%	1.0%
CCOC(=O)c1noc2ncnc(NCc3ccccc3OC)c12
 : nt	nt	-7%[46.1 µM]	nt	nt	-11%	-30%	-5.4%
CCCN1CCN(CC(=O)Nc2cc(OCC)ccc2OCC)CC1
 : nt	-2%	nt	3%	0%	nt	-2%	nt
COCCCN(CCC#N)C(=O)c1c(-c2c(Cl)cccc2Cl)noc1C
 : 13%	11%	8%	0%	1%	nt	-3%	nt
COc1cc(C2Nc3ccc4ccccc4c3C3=C2C(=O)CC(C)(C)C3)ccc1OCC(=O)O (configuration not stated)
 : nt	-1%	nt	?	-4%	nt	13%	nt
CCOc1ccc(NC(=O)c2ccc(NCC(=O)N3CCCCCC3)cc2)cc1
 : 23%	1%	2%	nt	-6%	nt	6%	nt
CC(=O)N(CCc1ccccc1C)Cc1cc2cc(C)ccc2[nH]c1=O
 : nt	0%	nt	19%	4%	nt	-19%	nt
O=C(Nc1nc2ccccc2s1)c1ccccc1[N+](=O)[O-]
 : nt	-12%	nt	0%	-2%	nt	62%[activator]	nt
COc1ccc(CCNC(=O)CCCCn2c(=O)[nH]c3ccccc3c2=O)cc1OC
 : -1%	2%	-26%	3%	-1%	3%	10%	9.0%
COc1ccc(NC(=O)C2CCC(CNc3c(N4CCCCC4)c(=O)c3=O)CC2)c(OC)c1 (configuration not stated)
 : 2%[46.1 µM]	8%	-10%[46.1 µM]	-3%	2%	nt	-21%	nt
O=C(NCCCN1CCCCC1)c1cc(Sc2ccc(Cl)cc2)nc2ccccc12
 : nt	nt	19%[46.1 µM]	nt	nt	-4%	-17%	0.5%
Nc1c2c(nc3ccccc13)CCCC2=O
 : 2%	14%	?	6%	0%	nt	11%	nt
Cc1ccc(Cl)cc1N1CCN(C(=O)c2cnn(C(C)(C)C)c2C2CCN(C(=O)OC(C)(C)C)CC2)CC1
 : nt	nt	-6%[46.1 µM]	nt	nt	?	?	-2.5%
CCn1c(-c2ccccc2SC)n[nH]c1=S
 : 7%[46.1 µM]	4%	-9%	nt	3%	nt	8%	nt
CCc1c(C)c2c(C)[nH]nc2oc1=O
 : 12%	4%	15%	-1%	?	-11%	-15%	0.0%
O=S(=O)(Cc1ccc(Cl)cc1)Oc1ccc(Cl)cc1
 : ?	-25%	-5%[46.1 µM]	nt	nt	nt	-1%	nt

In a second layout: entries from further up.
> CCOc1ccc(NC(=O)c2ccc(NCC(=O)N3CCCCCC3)cc2)cc1
  Marburg entry inh: 23% | RE007 growth inh: 1% | LASV entry inh: 2% | NS1 function inh: nt | SARS PLP yeast: -6% | Cruzain inh noDet: nt | StopGo reporter: 6% | Cruzain inh Det: nt

> CC(=O)N(CCc1ccccc1C)Cc1cc2cc(C)ccc2[nH]c1=O
  Marburg entry inh: nt | RE007 growth inh: 0% | LASV entry inh: nt | NS1 function inh: 19% | SARS PLP yeast: 4% | Cruzain inh noDet: nt | StopGo reporter: -19% | Cruzain inh Det: nt

> O=C(Nc1nc2ccccc2s1)c1ccccc1[N+](=O)[O-]
  Marburg entry inh: nt | RE007 growth inh: -12% | LASV entry inh: nt | NS1 function inh: 0% | SARS PLP yeast: -2% | Cruzain inh noDet: nt | StopGo reporter: 62%[activator] | Cruzain inh Det: nt

Other compounds follow:
Value order – Marburg entry inh	RE007 growth inh	LASV entry inh	NS1 function inh	SARS PLP yeast	Cruzain inh noDet	StopGo reporter	Cruzain inh Det
CC(C)c1ccc(S(=O)(=O)N2CCN(C(=S)NCc3ccco3)CC2)cc1
 : -42%	-10%	?	?	-25%	27%	-8%	-9.3%
C=C(C)C(=O)Nc1cccc(C2=NOC3(C2)C[C@H](C(N)=O)N(C(=O)c2ccccc2C(=O)c2ccccc2)C3)c1 (some centres not stated)
 : nt	1%	nt	-13%	2%	nt	-19%	nt
CC#CC(=O)N1CCC(C(=O)Nc2ccc(Oc3ccccc3)nc2)CC1
 : nt	-6%	nt	-3%	-5%	nt	10%	nt
COC(=O)c1ccc(-n2c(C)nc(=O)c(-c3ccccc3)c2C)cc1
 : -5%	-9%	-15%	-2%	7%	8%	nt	8.5%
CCC(C)C(=O)Nc1nc(C)c(-c2csc(Nc3ccccc3OC)n2)s1 (configuration not stated)
 : nt	0%	nt	20%	-15%	?	-7%	-2.3%
O=C(CSc1nccn1Cc1ccc(F)cc1)Nc1ccc2c(c1)OCCO2
 : nt	nt	-1%[46.1 µM]	nt	nt	7%	53%[activator]	-3.2%
CC(=O)c1ccc(N2CCN(c3ccnc4cc(Cl)ccc34)CC2)cc1
 : 10%[46.1 µM]	-24%	?	1%	?	nt	?	nt
Cc1cccc2cc(CN(CC3CCCO3)C(c3nnnn3Cc3ccco3)C(C)C)c(=O)[nH]c12 (configuration not stated)
 : ?	-2%	?	-7%	0%	-6%	0%	8.1%
